Assay outcomes (PubChem BioAssay)
PV pol inh: poliovirus RdRp elongation inhibitors, primary screen, biochemical, fluorescence polarization, total intensity. % elongation, % (compound at 16.7 µg/mL). AID 588519, 2011. poliovirus polymerase elongation; hits give low values. Genome polyprotein (Poliovirus type 1 (strain Mahoney)), P03300. hit rate 0.66% among 150,000; in the data active means % elongation below about 90%; further: some results filed as inactive read as strong as hits
Target sequence (P03300 1749-2209 limits assumed): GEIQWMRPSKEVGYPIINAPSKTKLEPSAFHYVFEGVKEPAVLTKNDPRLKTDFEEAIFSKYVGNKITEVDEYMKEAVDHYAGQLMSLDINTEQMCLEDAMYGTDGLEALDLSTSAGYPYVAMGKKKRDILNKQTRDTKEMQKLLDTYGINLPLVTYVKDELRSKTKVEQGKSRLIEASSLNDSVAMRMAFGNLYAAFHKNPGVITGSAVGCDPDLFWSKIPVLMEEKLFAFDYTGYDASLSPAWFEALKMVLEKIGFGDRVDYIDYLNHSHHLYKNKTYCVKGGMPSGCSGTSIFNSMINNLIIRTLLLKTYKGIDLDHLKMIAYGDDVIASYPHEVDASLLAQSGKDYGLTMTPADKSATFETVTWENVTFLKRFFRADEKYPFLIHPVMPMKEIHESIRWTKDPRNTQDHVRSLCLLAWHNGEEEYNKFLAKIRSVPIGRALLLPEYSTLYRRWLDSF
PV pol inh intensity: recorded beside PV pol inh, whose call it bears; % elongation; measured here: total intensity read-out; formula for this scale not given here;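 total fluorescence in place of polarization; lower means less elongation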
The depositor's hits bear a star. Some of the compounds tested; rates above refer to the full screens.

SMILES | PV pol inh | PV pol inh intensity
COc1ccc(C2=C(C)C(=NCCCN3CCN(c4cc(Cl)ccc4C)CC3)NS2(=O)=O)cc1 | 106 | 111
CC(C)CN(CCCNC(=O)CN1C(=O)COc2ccc(S(=O)(=O)N3CCCCCC3)cc21)CC(C)C | 111 | 112
O=C(NC1CCN(Cc2ccccc2)CC1)c1ccc(Cn2c(=O)c3ccccc3n(Cc3ccc(Cl)cc3)c2=O)cc1 | 99 | 101
CC(=O)c1cccc(NC(=O)N2CCC(CN3CCCCC3)CC2)c1 | 107 | 114
COc1cc(C(=O)Nc2nnc(CC(C)(C)C)s2)cc(OC)c1OC | 100 | 100
O=C(COc1ccc(Br)cc1Br)Nc1ccc(S(=O)(=O)Nc2ncccn2)cc1 | 106 | 113
Cc1cc(O)c(C(c2ccc(F)cc2)N2CCCCC2)c(=O)n1Cc1ccco1 (centres undefined) | 105 | 108
CCc1ccc(C(=O)CC2(O)C(=O)N(CCc3ccccc3)c3ccc(Cl)cc32)cc1 (centres undefined) | 105 | 105
O=C(CCn1nc(-c2ccc(Cl)cc2)ccc1=O)NCCc1ccccc1 | 115 | 116
COc1cc(C2Nc3ccccc3-c3nnc(SCc4ccc(Cl)cc4)nc3O2)ccc1OCC(=O)O (centres undefined) | 105 | 114
COc1cccc(NC(=O)c2csnn2)c1 | 100 | 101
CC(C)Oc1ccc(C(=O)Nc2c(C(=O)Nc3cccc(F)c3)oc3ccccc23)cc1 | 102 | 104
CS(=O)(=O)N1CCc2cc(C(=O)Nc3ccc(S(N)(=O)=O)cc3)ccc21 | 98 | 102
O=C(CNC(=O)c1ccc(Cl)cc1)OCc1cc(=O)n2ccsc2n1 | 107 | 103
CCCN(CCC)CCCNC(=O)Cn1ncc2c3ccccc3n(Cc3ccccc3F)c2c1=O | 113 | 106
Cc1ccccc1Cc1c(C)nc2nc(SCC(=O)NC(C)c3ccccc3)nn2c1C (centres undefined) | 106 | 108
CCC(Oc1ccccc1)C(=O)Nc1ccc2oc(-c3ccc(OC)cc3)nc2c1 (centres undefined) | 110 | 100
COc1ccc(CNC(=O)c2ccc(CS(=O)(=O)c3ccc(Br)cc3)o2)cc1 | 106 | 113
CCn1nc(C)c2c(-c3ccccc3)cc(=O)n(C(C)C(=O)NCCC(C)C)c21 (centres undefined) | 105 | 113
CCCCNC(=O)CSc1nnc(C)c2c(C)n(-c3ccccc3)nc12 | 102 | 107
COc1cc(C(CC(=O)NCc2ccccc2Cl)N2Cc3ccccc3C2=O)cc(OC)c1OC (centres undefined) | 104 | 105
COC(=O)c1ccccc1NC(=O)CCS(=O)(=O)c1nc(-c2ccc3c(c2)OCO3)cc(C(F)(F)F)n1 | 101 | 105
Clc1cccc(-n2ncc3c(NC4CCCCCC4)ncnc32)c1 | 104 | 111
CCn1cc2nc(SCC(=O)Nc3cc(OC)cc(OC)c3)n(Cc3ccc(Cl)cc3)c(=O)c2n1 | 109 | 110
CCOC(=O)C1CCC(CN(Cc2ccccc2)S(=O)(=O)c2ccc(Cl)cc2)CC1 (centres undefined) | 104 | 103
COc1ccc(NC(=O)CC2C(=O)N(c3cccc(OC)c3)C(=O)N2CCC2=CCCCC2)cc1 (centres undefined) | 107 | 104
CSc1nn(Cc2ccccc2C)c(NC(C)=O)c1S(=O)(=O)c1ccc(C)cc1 | 112 | 115
COc1ccc(NC(=O)CC2Oc3ccc(C)cc3NC2=O)cc1Cl (centres undefined) | 101 | 104
CCCc1nnc(SCc2cc(=O)c3c(C)cc(C)cc3[nH]2)n1C | 109 | 109
CCn1cc(C(=O)N2CCN(c3cc(C)ccc3C)CC2)c(=O)c2cc(S(=O)(=O)N3CCCCC3)ccc21 | 104 | 103
Cc1ccc(/C=C/c2onc(C)c2S(=O)(=O)N2CCC(C(=O)N3CC(C)Oc4ccccc43)CC2)cc1 (centres undefined) | 106 | 102
COc1ccc(-c2nc3sc(CCNC(=O)C(=O)Nc4cccc(NC(C)=O)c4)c(C)n3n2)cc1 | 111 | 111
CCOC(=O)CNC(=O)CC(c1cc(OC)c(OC)c(OC)c1)N1Cc2ccccc2C1=O (centres undefined) | 110 | 107
Clc1ccc(Nc2c(-c3cccs3)nc3ccc(Cl)cn23)cc1 | 99 | 102
COc1ccccc1-c1noc(-c2ccc(NCc3ccccc3)c([N+](=O)[O-])c2)n1 | 103 | 108
CCOC(=O)c1ccc(NC(=O)Cn2nnc(-c3ccc(C(F)(F)F)cc3)n2)cc1 | 104 | 108
COc1ccc(-n2cc(C(=O)NCCc3ccc(C)cc3)c3ccccc3c2=O)cc1 | 101 | 107
Cc1ccc2[nH]c3c(=O)n(CC(=O)NCc4ccco4)ncc3c2c1 | 115 | 110
COc1ccc(Cl)cc1NC(=O)c1ccc2nc(Cc3ccccc3)oc2c1 | 107 | 114
CC1CCN(CCNC(=O)c2ccc(Cn3c(SCc4ccccc4)nc4cccnc43)cc2)CC1 | 108 | 111

Of the compounds above, two have bromine.
SMILES | PV pol inh | PV pol inh intensity
O=C(COc1ccc(Br)cc1Br)Nc1ccc(S(=O)(=O)Nc2ncccn2)cc1 | 106 | 113
COc1ccc(CNC(=O)c2ccc(CS(=O)(=O)c3ccc(Br)cc3)o2)cc1 | 106 | 113

Continued.
SMILES | PV pol inh | PV pol inh intensity
Cc1ccc(-n2c(SCC(=O)Nc3cccc(Cl)c3)nc3n[nH]c(C)c3c2=N)cc1 | 101 | 103
COc1ccc(C(=O)N2CC(=O)Nc3ccc(C)cc3C2c2ccccc2)c(OC)c1 (centres undefined) | 110 | 104
COc1cc(NC(=O)CSc2cc(=O)n(C)c3ccccc23)cc(OC)c1OC | 108 | 112
CC(C)Cn1c(=O)c2ccccc2n2c(CCC(=O)Nc3ccc(F)c(F)c3)nnc12 | 106 | 110
COc1ccc(-c2cn3c(n2)sc2cc(C(=O)NCCCN4CCCCCC4)ccc23)cc1 | 100 | 97
Cc1cccc(Cn2cc(S(=O)(=O)c3cccc(Cl)c3)c(=O)c3cc(F)c(N4CCOCC4)cc32)c1 | 113 | 110
CCC(=O)Nc1ccc2nc3c(=O)n(C)c(=O)n(C)c3nc2c1 | 105 | 104
O=S(=O)(c1cccc2ccccc12)N1CCN(c2ccc(Cl)c(Cl)c2)CC1 | 100 | 101
Cc1ccc(CN(Cc2cccn2-c2nnc(N3CCCC3=O)s2)C(=O)Nc2ccccc2Cl)cc1 | 106 | 106
CCn1cc2c(n1)-c1c(oc(C(=O)Nc3cccc(C)c3C)c1C)CC2 | 92 | 80
CCOc1ccc(-n2nc3cc(C)c(NC(=O)c4cc(OCC)c(OCC)c(OCC)c4)cc3n2)cc1 | 110 | 107
Cc1oc(-c2ccc(Cl)cc2)nc1CS(=O)CC(=O)N1CCN(c2cccc(C(F)(F)F)c2)CC1 (centres undefined) | 108 | 111
CCN(C(=O)Cn1nc(Cc2ccncc2)c2ccccc2c1=O)c1cccc(Cl)c1 | 108 | 110
Cc1cccc(NC(=O)c2cnc3sc(N4CCCC4)nn3c2=O)c1C | 113 | 106
CCc1ccccc1NC(=O)CN1C(=O)c2ccccc2Sc2ncccc21 | 100 | 110
Cc1ccc(Cl)cc1NC(=O)Nc1cccc(OCc2cc(=O)n3ccccc3n2)c1 | 94 | 121
Cc1cc(C)nc(-n2nc(C)c3c2N(C)C(=O)CC3c2ccc(Cl)cc2)n1 (centres undefined) | 99 | 106
CCCCN1C(=O)c2[nH]nc(-c3ccccc3O)c2C1c1ccc(OCc2ccccc2)cc1 (centres undefined) | 102 | 107
Cc1ccc(CNC(=O)Cn2ccn(-c3ccc(F)cc3)c(=O)c2=O)cc1 | 108 | 112
Cc1c(Cl)cccc1-n1c(SCC(=O)NCc2ccccc2)nc2n[nH]c(C)c2c1=N | 96 | 89

Overlap with the part before: six compounds, followed by the next part.
SMILES | PV pol inh | PV pol inh intensity
CCc1ccccc1NC(=O)CN1C(=O)c2ccccc2Sc2ncccc21 | 100 | 110
Cc1ccc(Cl)cc1NC(=O)Nc1cccc(OCc2cc(=O)n3ccccc3n2)c1 | 94 | 121
Cc1cc(C)nc(-n2nc(C)c3c2N(C)C(=O)CC3c2ccc(Cl)cc2)n1 (centres undefined) | 99 | 106
CCCCN1C(=O)c2[nH]nc(-c3ccccc3O)c2C1c1ccc(OCc2ccccc2)cc1 (centres undefined) | 102 | 107
Cc1ccc(CNC(=O)Cn2ccn(-c3ccc(F)cc3)c(=O)c2=O)cc1 | 108 | 112
Cc1c(Cl)cccc1-n1c(SCC(=O)NCc2ccccc2)nc2n[nH]c(C)c2c1=N | 96 | 89
Cc1ccc(Oc2c(C(F)(F)F)oc3c(CN4CCCCC4)c(O)ccc3c2=O)cc1 | 103 | 106
Cc1cccc(N2CCN(C(=O)CS(=O)(=O)c3cccc4nsnc34)CC2C)c1 (centres undefined) | 102 | 105
COc1ccccc1-c1noc(-c2ccc(N3CCOCC3)c([N+](=O)[O-])c2)n1 | 104 | 97
CN(Cc1ccccc1)C(=O)CCS(=O)(=O)c1cc(Br)cc2c1N(C(=O)C1CC1)CC2 | 106 | 109
CCc1cccc(C)c1NC(=O)CN1CCCN(Cc2ccc(C)cc2)S1(=O)=O | 111 | 95
COc1cc(OC)cc(-c2nc(-c3cccc(C)c3)no2)c1 | 106 | 106
Cc1nn(C(=O)COc2ccc(Cl)cc2)c(C)c1Sc1ccccc1 | 109 | 110
Cc1ccc(Cn2cnc3nc4c(cc3c2=O)CC(C)CC4)cc1 (centres undefined) | 102 | 107
Cc1ccc(N(CC(=O)Nc2cc(C)cc(C)c2)S(=O)(=O)c2cccc3nonc23)cc1 | 106 | 108
Cc1ccc2nc(N3CCC(C(=O)N4CCN(c5cccc(C)c5C)CC4)CC3)[nH]c2c1 | 109 | 114
O=S(=O)(NCCc1csc(-c2ccc(F)cc2)n1)c1ccc(F)cc1F | 112 | 112
CCOC(=O)c1c(NC(=O)c2cc(Cl)ccc2Cl)sc2c1CCCC2 | 109 | 114
Cc1ccc(NC(=O)CN2C=NS(=O)(=O)c3ccccc32)c(C)c1 | 107 | 113
COc1ccc(Br)cc1CNC(=O)CSc1cc(=O)n(C)c2ccccc12 | 105 | 106
Cc1cc(=O)n(Cc2ccc(Cl)cc2)c2c1c(C)nn2-c1ccccc1 | 113 | 102
CCN1CCN(C(c2ccc(C)cc2)c2sc3nc(-c4ccco4)nn3c2O)CC1 (centres undefined) | 108 | 102
CCOC(=O)c1c(C)oc2nc(C)nc(NCc3ccc(F)cc3)c12 | 110 | 109
CCN(C(=O)Cn1nc(Cc2ccncc2)c2ccccc2c1=O)c1cccc(C(F)(F)F)c1 | 110 | 112
O=C(c1cccs1)N1CCCc2cc(NS(=O)(=O)c3ccc(Cl)cc3)ccc21 | 99 | 99
CCOC(=O)c1ccc(N2C(=O)c3n[nH]c(-c4cccs4)c3C2c2ccc(OC)cc2OC)cc1 (centres undefined) | 104 | 106
CN(C)c1ccc(NC(=O)CSc2nc3ccsc3c(=O)n2CCCCCC(=O)O)cc1 | 107 | 109
Cc1c(Cl)cccc1NC(=O)Cn1cnc(S(=O)(=O)N2CCCC2)c1 | 108 | 103
Cc1ccc2onc(CNC(=O)NCc3cccc(Cl)c3)c2c1 | 103 | 107
CN(c1ccccc1)S(=O)(=O)c1nnc(NC(=O)C2CCCCC2)s1 | 105 | 106
Cc1cccc(N2CCN(c3ncnc4onc(-c5ccc(F)cc5)c34)CC2C)c1 (centres undefined) | 103 | 83
CCOC(=O)c1c(C)c(C(=O)NCc2ccc(Cl)cc2)c(C)n1CC | 109 | 111
Cc1ccc(C2CCN(C(=O)c3cnn(-c4ccc(C)cc4)c3C3CCN(C(=O)OC(C)(C)C)CC3)C2)cc1 (centres undefined) | 108 | 103
Cc1ccc(NC(=O)N(Cc2c[nH]c3ccccc23)C2CCCCCC2)cc1C | 106 | 106
Cc1cccc(C(=O)N2CCc3cc(CNC(=O)Cc4ccc(F)cc4)ccc32)c1 | 102 | 104
O=C(Nc1ccccc1C(=O)OCc1cc(=O)n2c3c(sc2n1)CCCC3)c1ccc(F)cc1 | 104 | 94
CC(C)CCNC(=O)Nc1ccc2c(c1)N(C)C(=O)c1ccccc1S2 | 107 | 92
CC(=O)c1ccc(NC(=O)C(Cc2ccccc2)NS(=O)(=O)c2ccc3c(c2)CCC(=O)N3)cc1 (centres undefined) | 105 | 108
COc1ccccc1C(=O)Nc1onc2c1CCCC2 | 106 | 113
COc1ccc(OC)c(CCNC(=O)c2cc3cccc4c3n2CC(C)S4)c1 (centres undefined) | 106 | 103
CCCCCCc1cc2cc(-c3cn4c(n3)sc3cc(OC)ccc34)c(=O)oc2cc1O | 124 | 129
CC(=O)Nc1ccc(Nc2nc3ccc(Cl)cc3n3cnnc23)cc1 | 109 | 112
Cc1ccc(-c2nn(C)c(=O)c3ccccc23)cc1S(=O)(=O)NCCCN(C)C | 105 | 110
Cc1ccc(N2CCN(C(=O)c3cc4cc5ccc(C)cc5nc4s3)CC2C)cc1 (centres undefined) | 115 | 111
Cc1ccc(S(=O)(=O)c2nnn3c2nc(N2CCN(c4cccc(C)c4C)CC2)c2ccccc23)cc1C | 108 | 108
Cc1ccc(C)c(N2CCN(c3nc4c(S(=O)(=O)c5ccccc5)nnn4c4ccc(Cl)cc34)CC2)c1 | 101 | 112
CC(C)NS(=O)(=O)c1ccc(OCC(=O)N2CCN(c3cccc(Cl)c3)CC2)cc1 | 103 | 104
Cc1ccc(C)c(CN2C(=O)c3ccccc3S(=O)c3ccc(C(=O)N(C)Cc4ccccc4)cc32)c1 (centres undefined) | 105 | 110
